PD-1 reverse act: reversal of PD-1 mediated T-cell inhibition; activation, % (test concentration not listed); primary human CD4 T cells, PD-L1 beads, CellTiter-Glo 96 h; 29,000 tested, under 10 active;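 active = replicate mean of 50% or more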;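 note: 0% = median vehicle wells and 100% = positive control; 100 nL library stock added to about 50 µL; numbers are from one replicate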
Shh pathway inh: blocks Sonic Hedgehog signaling | Shh-LIGHT2 Gli-luciferase reporter, 30 h | inhibition, % (concentration not given with the values) | hit rate 2.1% among 22,000;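 active = replicate mean of 65% or more; inconclusive = mean lower but half the replicates past it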;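 note: pathway switched on by Shh-conditioned medium diluted 1 in 25 in low serum; 100 nL library stock added to about 40 µL; 0% = median of neutral wells and 100% = positive control level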
YB-1 expr inh: YB-1 expression inhibition. delta delta Cp (YB-1 minus CDIP) (concentration not given with the values). hit rate 0.37% among 30,000. U2OS, qRT-PCR YB-1 vs CDIP delta delta Cp, 16 h; stronger effect = higher value; zero = DMSO, each unit about twofold. AID 434959;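 active = delta delta Cp rounded down to an integer at or above 3, about 3 SD of DMSO wells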;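 note: higher means less YB-1 transcript or more CDIP transcript relative to DMSO; stock transfer was 100 nL into about 100 µL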
MITF inhib: MITF inhibition | TRPM1 promoter luciferase, luminescence, 24 h | inhibition, % (concentration not given with the values) | hit rate 0.28% among 37,000 | AID 2240;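 active = most replicates at 85% or more, or half of them and the mean; inconclusive = half reach 85% but not the mean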;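 note: human melanocyte line stably carrying TRPM1 promoter luciferase reporter; 0% = vehicle wells and 100% = a positive control; the first replicate is given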
* marks the source's active call; other numbers are inactive results; u = inconclusive; x = no result given. This is a subset; rates above refer to the full screens.

The line under a structure holds: PD-1 reverse act	Shh pathway inh	YB-1 expr inh	MITF inhib
- CC(=O)Nc1ccc(OC(=O)CSc2nc3ccccc3s2)cc1
    0.4	x	x	9
- C[C@@H]1CN([C@H](C)CO)C(=O)c2cccc(NC(=O)c3ccc(-c4nccs4)cc3)c2O[C@H]1CN(C)Cc1ccncc1
    -2.0	33	0.11	-1
- C[C@H](CO)N1C[C@H](C)[C@H](CN(C)C(=O)Nc2ccccc2)Oc2ccc(NC(=O)Cc3ccccc3)cc2CC1=O
    x	23	4.6*	-3
- CC1(C)C(=O)[C@@H]2O[C@@H]2[C@@]2(C)C1CC(=O)[C@]1(C)C2CC[C@@]2(C)[C@H](c3ccoc3)OC(=O)[C@H]3O[C@]321 (some centres undefined)
    x	19	-0.073	-6
- COC(CC(c1c(O)cc2cc(C)oc(=O)c2c1O)c1c(O)cc2cc(C)oc(=O)c2c1O)C(=O)O (centres undefined)
    0.8	9	0.28	2
- Cc1noc(C)c1NC(=O)N(C)C[C@H]1OCCCC[C@@H](C)Oc2ccc(NS(=O)(=O)c3cn(C)cn3)cc2C(=O)N([C@H](C)CO)C[C@@H]1C
    1.1	10	0.017	-2
- C[C@@H]1CN([C@H](C)CO)C(=O)c2cccc(NC(=O)c3cnccn3)c2O[C@@H]1CN(C)Cc1ccc(-c2ccccc2)cc1
    x	-16	0.33	-28
- C[C@@H]1CN([C@@H](C)CO)C(=O)c2cccc(NC(=O)Nc3ccc(C(F)(F)F)cc3)c2O[C@H]1CN(C)Cc1ccncc1
    x	-43	-0.22	-4
- C[C@H](CO)N1C[C@H](C)[C@H](CN(C)S(C)(=O)=O)Oc2ccc(NS(=O)(=O)c3ccccc3)cc2CC1=O
    0.7	0	0.058	-6
- NC(=O)CSc1nnc(SCc2cccc3ccccc23)s1
    0.6	x	x	-64

Brought forward from above: two compounds; new compounds follow.
The line under a structure holds: PD-1 reverse act	Shh pathway inh	YB-1 expr inh	MITF inhib
- C[C@H](CO)N1C[C@H](C)[C@H](CN(C)S(C)(=O)=O)Oc2ccc(NS(=O)(=O)c3ccccc3)cc2CC1=O
    0.7	0	0.058	-6
- NC(=O)CSc1nnc(SCc2cccc3ccccc23)s1
    0.6	x	x	-64
- C[C@H]1CN([C@@H](C)CO)C(=O)c2cccc(NC(=O)C3CCOCC3)c2O[C@H]1CN(C)Cc1ccc(C(=O)Nc2ccccc2N)cc1
    -0.8	x	-0.49	-18
- CNC[C@H]1Oc2c(NC(=O)Nc3ccc(OC)cc3)cccc2C(=O)N([C@@H](C)CO)C[C@H]1C
    0.6	-12	1.9	-13
- O=C(NCCCn1ccnc1)C1CC(c2ccccc2Cl)=NO1 (centres undefined)
    -2.2	x	x	-12
- CCOC(=O)N1N=C(C)CC1(O)c1cccnc1 (centres undefined)
    1.3	-44	-0.27	-5
- COc1ccc(S(=O)(=O)N(C)C[C@@H]2Oc3ccc(NC(=O)Nc4c(C)noc4C)cc3C(=O)N([C@H](C)CO)C[C@H]2C)cc1
    1.2	x	-0.13	-8
- C[C@H]1CN([C@@H](C)CO)C(=O)Cc2cc(NC(=O)CCCCCC(=O)Nc3ccccc3N)ccc2O[C@@H]1CN(C)Cc1ccc(-c2ccccc2)cc1
    0.3	x	-0.34	19
- C[C@H](CO)N1C[C@H](C)[C@H](CN(C)Cc2ccc(C(F)(F)F)cc2)Oc2ccc(NC(=O)CCCN(C)C)cc2C1=O
    1.2	19	-0.19	1
- O=C(Nc1ccc(I)cc1C(=O)NCc1ccco1)c1cccnc1
    -0.3	x	x	-1
- C[C@H]1CN([C@@H](C)CO)C(=O)Cc2cc(NC(=O)NC3CCCCC3)ccc2O[C@@H]1CN(C)Cc1ccc(C(=O)O)cc1
    1.5	x	0.053	-5
- Cc1ccc(-n2c(SCC(=O)Nc3sc4c(c3C#N)CCCC4)nnc2-c2ccccc2)cc1
    0.4	x	x	31
- O=C(O)CCSc1nnc(-c2cccnc2)n1-c1ccccc1
    3.1	x	x	-16
- C[C@H]1CN([C@@H](C)CO)C(=O)c2cc(NS(=O)(=O)c3ccccc3)ccc2O[C@H]1CN(C)C(=O)Nc1cccc2ccccc12
    0.1	-5	0.35	3
- Nc1cc(=O)nc(SCC(=O)N2c3ccccc3Sc3ccccc32)n1-c1ccccc1
    -0.3	x	x	5
- CNC[C@@H]1Oc2ccc(NC(=O)Cc3cn(C)c4ccccc34)cc2C(=O)N([C@@H](C)CO)C[C@H]1C
    -0.4	x	-0.57	10
- COc1cc(C)c(Cl)c(C)c1S(=O)(=O)NCc1cccnc1
    -0.7	x	x	-8
- CC(=O)c1ccc(NC(=O)CSc2nc(N)cc(=O)[nH]2)cc1
    -1.6	x	x	-93
- Cc1cc(C)cc(COc2ccc3c(C)c(CCC(=O)O)c(=O)oc3c2C)c1
    0.3	x	x	-7
- O=C(C1CCCCC1)N1CC(=O)N2CCc3ccccc3C2C1 (centres undefined)
    x	-5	-0.27	-7
- O=C(CCCN1CCNCC1)c1ccc(F)cc1
    1.0	-7	0.45	-18
- Cc1ccc(S(=O)(=O)N(C)C[C@H]2Oc3ccc(NC(=O)CCC(F)(F)F)cc3C(=O)N([C@@H](C)CO)C[C@H]2C)cc1
    1.1	26	-0.16	8

Looked up above.
PD-1 reverse act result of CNC[C@H]1Oc2c(NC(=O)Nc3ccc(OC)cc3)cccc2C(=O)N([C@@H](C)CO)C[C@H]1C = 0.6
PD-1 reverse act result of Cc1cc(C)cc(COc2ccc3c(C)c(CCC(=O)O)c(=O)oc3c2C)c1 = 0.3
YB-1 expr inh result of C[C@H](CO)N1C[C@H](C)[C@H](CN(C)S(C)(=O)=O)Oc2ccc(NS(=O)(=O)c3ccccc3)cc2CC1=O = 0.058
MITF inhib result of C[C@@H]1CN([C@H](C)CO)C(=O)c2cccc(NC(=O)c3cnccn3)c2O[C@@H]1CN(C)Cc1ccc(-c2ccccc2)cc1 = -28

Later entries
The line under a structure holds: PD-1 reverse act	Shh pathway inh	YB-1 expr inh	MITF inhib
- CCn1c(SCC(=O)Nc2cc(Cl)c(Cl)cc2Cl)nnc1-c1cc(Br)ccc1O
    -2.6	x	x	43
- C[C@@H]1CCCCO[C@H](CN(C)C(=O)Nc2cccc3ccccc23)[C@@H](C)CN([C@H](C)CO)C(=O)c2cc(NC(=O)c3ccccc3)ccc2O1
    -2.0	-6	0.11	-2
- Cc1nc(-c2ccccc2)c(-c2ccncc2)o1
    9.2	38	-0.92	-13
- CC(C)N(Cc1nc(-c2ccccc2)no1)C(=O)c1ccc([N+](=O)[O-])cc1
    -1.8	x	x	7
- C[C@@H]1CN([C@@H](C)CO)C(=O)c2cc(NC(=O)Nc3ccc4c(c3)OCO4)ccc2O[C@@H]1CN(C)CC1CCCCC1
    1.1	x	0.15	-19
- COc1ccc(S(=O)(=O)Nc2cccc3c2O[C@H](CN(C)S(=O)(=O)c2ccccc2)[C@H](C)CN([C@H](C)CO)C3=O)cc1
    x	-27	-1	-10
- C[C@@H]1CCCCO[C@@H](CN(C)Cc2ccccc2)[C@@H](C)CN([C@H](C)CO)C(=O)c2cc(NC(=O)CCCCCC(=O)Nc3ccccc3N)ccc2O1
    1.1	x	-1.1	-7
- O=C(Nc1ccccc1C(=O)OCc1cccc([N+](=O)[O-])c1)c1ccccc1
    -1.4	x	x	-30
- Cc1noc(C)c1NC(=O)N(C)C[C@@H]1Oc2c(NS(=O)(=O)c3ccc(F)cc3)cccc2C(=O)N([C@@H](C)CO)C[C@H]1C
    0.0	-23	-0.72	-2
- CC(C)(C)C1CC=C2[C@H](C1)[C@@H](c1ccsc1)C(C#N)=C(N)C2(C#N)C#N (some centres undefined)
    0.1	1	-0.28	5
- O=C(N/N=C/c1ccc([N+](=O)[O-])o1)c1ccc(O)cc1
    -7.2	10	0.42	61
- C/C1=C/[C@H]2OC(=O)[C@@H](C)[C@@H]2[C@H](O)C/C(CO)=C\CC1
    x	u	0.049	x
- C[C@@H]1CN([C@H](C)CO)C(=O)Cc2cc(NS(=O)(=O)c3ccc(Cl)cc3)ccc2O[C@H]1CN(C)C(=O)Nc1ccc2c(c1)OCO2
    1.3	-24	-0.3	-8
- COC(=O)c1ccccc1NC(=O)CSc1nc2cc(Cl)ccc2s1
    1.8	x	x	-5
- Cc1noc(C)c1NC(=O)N(C)C[C@H]1OCCCC[C@@H](C)Oc2ccc(NC(=O)Nc3cccc4ccccc34)cc2C(=O)N([C@H](C)CO)C[C@@H]1C
    -0.9	4	0.2	-11
- CC(C)(C)c1ccc(SCC(O)CSc2nc3c(cc2C#N)CCCC3)cc1 (centres undefined)
    2.0	x	x	-14
- COc1ccc(S(=O)(=O)Nc2ccc3c(c2)CC(=O)N([C@H](C)CO)C[C@H](C)[C@H](CN(C)Cc2ccc(C(F)(F)F)cc2)O3)cc1
    1.4	22	-0.26	12
- O=C(CSc1nnc(-c2cccc(Br)c2)n1-c1ccccc1)Nc1ccc(Cl)cc1
    0.8	x	x	5
- Cn1c(Cc2cccs2)nnc1SCC(=O)N1CCCc2ccccc21
    -0.4	x	x	-12
- C[C@H]1CN([C@@H](C)CO)C(=O)Cc2cc(NS(=O)(=O)c3cccs3)ccc2O[C@@H]1CN(C)Cc1ccccc1
    -1.8	u	0.36	-9
- N#C/C(=C\Nc1cc(C(F)(F)F)cc(C(F)(F)F)c1)S(=O)(=O)c1ccccn1
    -0.2	-8	-0.16	20
- COC1=CC(=O)CC(C)C12Oc1cc(OC)cc(OC)c1C2=O (centres undefined)
    -0.1	-23	0.28	7
- Cc1ccnc(NS(=O)(=O)c2ccc(NC(=O)C34CCC5CC(CC(C5)C3)C4)cc2)n1
    1.3	x	x	-12
- Cc1ccc(S(=O)(=O)Nc2ccc3c(c2)C(=O)N([C@H](C)CO)C[C@@H](C)[C@@H](CN(C)S(C)(=O)=O)O3)cc1
    2.1	x	0.05	12
- COc1ccc(NC(=O)N(C)C[C@@H]2Oc3ccc(NS(=O)(=O)c4cccs4)cc3C(=O)N([C@@H](C)CO)C[C@@H]2C)cc1
    0.1	-22	-0.075	-11
- N#CC1(NC(=O)c2cc3ccccc3oc2=O)CCCCC1
    0.3	-17	-0.34	-14
- CC(C)[C@@H]1CC[C@@]2(C)CCC[C@@](C)(O)[C@@H]2[C@H]1OC(=O)/C=C/c1ccccc1
    -3.6	-52	-0.3	1
- Cc1nnc(SCC(=O)Nc2ccc([N+](=O)[O-])cc2)s1
    1.2	x	x	3
- CNC[C@@H]1Oc2ccc(NC(=O)Nc3cccc4ccccc34)cc2CC(=O)N([C@H](C)CO)C[C@@H]1C
    0.7	-3	-0.09	1
- C[C@@H]1CN([C@H](C)CO)C(=O)c2cccc(NC(=O)c3cnccn3)c2O[C@@H]1CN(C)CC1CCCCC1
    0.4	28	-0.34	-2
- CCn1c(SCC(=O)Nc2ccc(Cl)c(Cl)c2)nnc1-c1ccc(Br)cc1
    -0.1	x	x	16
- C[C@H]1CN([C@@H](C)CO)C(=O)c2cc(NC(=O)Cc3ccccc3)ccc2O[C@@H]1CN(C)CC1CCCCC1
    2.4	x	-0.15	-5
- O=C(NCc1ccco1)c1ccc2c(c1)C(=O)N(Cc1cccnc1)C2=O
    0.6	x	x	2
- C[C@H](CO)N1C[C@H](C)[C@@H](CN(C)C(=O)Nc2ccc3c(c2)OCO3)Oc2ccc(NC(=O)Nc3ccc4c(c3)OCO4)cc2C1=O
    x	u	0.023	-5
- C[C@H]1CN([C@@H](C)CO)C(=O)c2cc(NC(=O)Nc3cccc4ccccc34)ccc2O[C@H]1CN(C)S(=O)(=O)c1cn(C)cn1
    0.0	x	-0.24	-1
- C[C@H]1CN([C@@H](C)CO)C(=O)Cc2cc(NC(=O)Nc3ccc(C(F)(F)F)cc3)ccc2O[C@H]1CN(C)Cc1ccc(C(=O)O)cc1
    1.7	15	0.14	-2
- O=C(CSc1nc2sc3c(c2c(=O)n1-c1ccccc1)CCC3)N1CCC(c2noc3ccc(F)cc23)CC1
    -1.3	x	x	-7
- C[C@H]1CN([C@@H](C)CO)C(=O)c2cc(NC(=O)Nc3ccc4c(c3)OCO4)ccc2O[C@H]1CN(C)S(=O)(=O)c1ccccc1
    -1.5	-17	0.37	-22
- CC(C)NC(=O)Nc1ccc2c(c1)C(=O)N([C@H](C)CO)C[C@@H](C)[C@@H](CN(C)S(=O)(=O)c1ccc(Cl)cc1)O2
    x	-140	-0.48	1
- Nc1ccccc1CC(c1c[nH]c2ccccc12)c1c[nH]c2ccccc12
    -0.2	x	-0.64	12
- COc1ccc(NC(=O)Nc2ccc3c(c2)C(=O)N([C@H](C)CO)C[C@H](C)[C@@H](CN(C)S(=O)(=O)c2c(C)noc2C)OCCCC[C@@H](C)O3)cc1
    -0.1	24	0.18	9
- C[C@@H]1CCCCO[C@@H](CN(C)C(=O)NC2CCCCC2)[C@@H](C)CN([C@H](C)CO)C(=O)c2cc(NC(=O)Nc3ccc(C(F)(F)F)cc3)ccc2O1
    -0.1	16	0.22	18
- C[C@@H]1CN([C@@H](C)CO)C(=O)Cc2cc(NC(=O)Cc3ccccc3)ccc2O[C@@H]1CN(C)CC1CC1
    x	x	-0.0043	-5
- COc1cc(C)c(C(=O)O[C@H]2[C@@H](OC(C)=O)[C@H](n3ccc(=O)[nH]c3=O)O[C@@H]2CO)c(OC)c1
    -0.4	-11	-0.12	17
- COc1cccc(C(=O)NC2(C(F)(F)F)C(=O)N(CC3CCCO3)C3=C2C(=O)CC(C)(C)C3)c1 (centres undefined)
    -0.2	x	x	-16

Compound activity: PubChem, Broad Institute
